Compound activity: PubChem, several laboratories
UCH37 DUB inh: inhibitors of human UCH37 deubiquitinase, primary screen, biochemical, Ub-AMC cleavage, fluorescence. Ubiquitin carboxyl-terminal hydrolase isozyme L5 (Homo sapiens), Q9Y5K5. purified proteasome/UCH37. inhibition, % (no concentration beside the values). 330,000 tested, 0.33% active. AID 588478, 2011;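 active = mean of two replicates above 20%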;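 also: 0% = compound-free wells with enzyme and 100% = wells lacking proteasome; stock transfer was 100 nL into about 20 µL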
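Signal – fluorescence, ex 355 nm, em 460 nm · System – Proteasome-bound UCH37 · Input – 0.15 nM proteasome as dispensed · Timing – 30 min preincubation with enzyme, 25 min cleavage at room temperature · Read-out basis – percent inhibition of cleavage signal versus uninhibited and no-proteasome wells · Medium – Tris-HCl pH 7.4 with ATP-MgCl2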
E coli growth: E. coli growth inhibition, primary screen, OD600. Escherichia coli growth, 23 h; stronger effect = lower value. OD600 absorbance (no concentration beside the values). 330,000 tested, 0.21% active;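 active = OD600 absorbance below the run mean of sample wells minus 3.6 SD, in any replicate, cut at about 0.56 in these data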;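 also: stock transfer was 300 nL into about 60 µL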
Bfl-1 A1 inh: caspase 3/7 activation in MEF A1-2A-BIM cells, primary screen, A1 inhibitor project, cell-based, luminescence, HTS | Caspase-Glo 3/7 luminescence, 3 h; percent of clofoctol response, vehicle zero | 330,000 tested, 0.066% active | caspase activation, % (no concentration beside the values);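 active = over half of replicate activation scores above 10%, or exactly half above 10 with the replicate mean above 10; inconclusive = replicate mean below 10 yet half the replicates above 10; inactive = over half of replicates below 10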;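 also: wells of about 30 µL received 50 nL stock; many hits fall short of the cut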
HNF4A DNA FP: change in binding of human HNF4A to DNA, primary screen, biochemical, fluorescence polarization, FITC-DNA; Hepatocyte nuclear factor 4-alpha (Homo sapiens), P41235; 1 h; activity change, % at 10 µM; 360,000 tested, 0.3% active; AID 1224865, 2016; in the data active = activity change above about 30%, passing the limit was not always enough;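 also: controls were the assay level and a saturating level of protein; the project sought stronger binding though the title names inhibitors; some compounds called inactive have numbers as strong as hits; positive values seem to mean higher polarization but the record does not say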
LANA-H2B inh: blockers of LANA interaction with H2A/H2B – biochemical, FP readout, HTS, primary screen; Protein LANA1 (Human herpesvirus 8 type P (isolate GK18)), Q9QR71; inhibition, % (test concentration not listed); AID 2629, 2010; 320,000 tested, 0.6% active; cell-free LANA-H2A/H2B peptide, fluorescence polarization; in the data active = inhibition mostly above about 10%, no sharp cut-off; inactive = mostly below about 6.7%;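 also: stock transfer was 7.5 nL into about 10 µL; 0% = median of vehicle wells and 100% = median of positive control wells; one replicate is shown; the record names a cut of 25% in any replicate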
Target sequence (Q9QR71 whole entry, looked up): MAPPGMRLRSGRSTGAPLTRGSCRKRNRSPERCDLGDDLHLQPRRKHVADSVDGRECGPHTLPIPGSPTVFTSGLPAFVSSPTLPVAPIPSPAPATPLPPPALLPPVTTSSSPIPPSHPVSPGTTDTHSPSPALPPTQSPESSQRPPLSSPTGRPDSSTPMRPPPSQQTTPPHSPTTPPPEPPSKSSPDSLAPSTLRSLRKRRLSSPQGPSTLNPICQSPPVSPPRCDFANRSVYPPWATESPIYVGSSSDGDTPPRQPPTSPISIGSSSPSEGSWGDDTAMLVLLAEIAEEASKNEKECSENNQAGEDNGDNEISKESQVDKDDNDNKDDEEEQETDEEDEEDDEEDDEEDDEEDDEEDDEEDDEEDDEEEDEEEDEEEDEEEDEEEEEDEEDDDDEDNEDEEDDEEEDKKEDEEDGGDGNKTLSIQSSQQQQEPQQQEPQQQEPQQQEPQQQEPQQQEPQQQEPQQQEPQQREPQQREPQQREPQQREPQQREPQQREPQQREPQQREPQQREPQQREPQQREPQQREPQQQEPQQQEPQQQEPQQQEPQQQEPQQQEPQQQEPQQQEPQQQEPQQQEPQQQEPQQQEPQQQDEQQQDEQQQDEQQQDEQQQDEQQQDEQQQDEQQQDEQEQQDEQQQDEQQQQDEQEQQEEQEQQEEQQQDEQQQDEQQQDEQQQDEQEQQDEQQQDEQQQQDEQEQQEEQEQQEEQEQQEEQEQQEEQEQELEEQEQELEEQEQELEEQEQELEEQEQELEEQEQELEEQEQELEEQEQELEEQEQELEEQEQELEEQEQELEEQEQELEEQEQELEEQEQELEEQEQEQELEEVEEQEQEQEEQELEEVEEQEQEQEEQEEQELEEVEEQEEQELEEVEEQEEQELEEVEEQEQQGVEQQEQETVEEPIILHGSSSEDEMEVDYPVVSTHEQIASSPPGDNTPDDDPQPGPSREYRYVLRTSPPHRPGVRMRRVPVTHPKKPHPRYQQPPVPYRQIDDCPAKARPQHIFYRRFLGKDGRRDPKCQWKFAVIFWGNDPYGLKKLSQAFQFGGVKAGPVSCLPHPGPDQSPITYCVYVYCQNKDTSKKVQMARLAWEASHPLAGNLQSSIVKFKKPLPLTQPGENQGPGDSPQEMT
Vif A3G: inhibitors of Vif binding to APOBEC3G peptide, primary screen, biochemical, TR-FRET, GST-Vif 1-94, biotin-A3G peptide, dose response retest (AID 1117319); Virion infectivity factor (Human immunodeficiency virus type 1 group M subtype B (isolate …; one-dose inhibition, %; IC50 in µM for titrated hits; 260,000 tested, 0.57% active; TR-FRET GST-Vif / biotin-A3G peptide binding; higher % means a stronger effect; test concentration not given here; strong numbers were not always called active;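 active = above the screen mean plus three standard deviations and confirmed in dose response; inconclusive = results disagree or hit not tested in dose response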;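 also: Vif residues 1-94 fused to GST binding biotinylated APOBEC3G peptide 110-148; 0% = full assay without inhibitor and 100% = GST in place of GST-Vif; retest series ran down from 100 µM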
B2AR ag: beta2AR agonists driving receptor internalization, primary screen, cell-based, FAP fluorogen, flow cytometry. 340,000 tested, 0.43% active. response, % (concentration not given with the values). Am2.2-beta2AR cells; reference of the scale not given here;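 active = response above a set limit, near 3 SD of response in nonfluorescent compounds, cut at about 42% in these data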;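 also: stock transfer was 100 nL into about 11 µL; a reference agonist was the positive control; negative values mostly stem from fluorescent compounds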
* = called active by the depositor; ? = inconclusive; . = not tested or not shown; & = joins results of further samples. The order is random; 2.1% or so of the library scored in one or more.

Molecule	UCH37 DUB inh	E coli growth	Bfl-1 A1 inh	HNF4A DNA FP	LANA-H2B inh	Vif A3G	B2AR ag
CN(C)c1ccc(N2C(=NC(=O)c3ccccc3)SC3CS(=O)(=O)CC32)cc1 (stereo not drawn)	-9.2	0.64	1.5	1.3	1.0	.	4
O=C(N/N=C/c1c[nH]c2ccccc12)c1ccc(Cl)cc1	.	.	-0.4	0.0	-4.9	-4%	6
COC(=O)c1c(C)oc(C)c1S(=O)(=O)NCc1ccc(OC)cc1	4.0	0.71	-0.6	0.4	-0.4	2%	8
COc1ccc(N(C(=O)c2cccnc2)S(=O)(=O)c2ccc(Cl)cc2)cc1	0.1	0.71	0.9	2.2	-3.2	-6%	2
COc1ccc(CCn2c(C3CCCCC3)nc3c(c(=O)c4ccccc4n3C)c2=O)cc1	6.8	0.7	0.1	-0.9	-2.0	10%	1
COc1ccc(C(=O)Nc2cnc(NC(=O)c3cccs3)cc2C)cc1	3.9	0.63	-3.2	-0.7	-0.4	.	-2
Cc1ccc(C(=O)Oc2cccc(NC(=O)c3ccccc3)c2)cc1C	2.5	0.69	-0.3	-0.1	-1.0	.	3
C=C(C)C1CCC(C)=C1CC(C)(C)/C=N\n1cnnc1 (stereo not drawn)	.	.	-0.2	-3.1	-12	?	-4
O=S1(=O)CCOCCCN1Cc1ccccc1Br	5.9	0.64	-1.4	-1.5	1.8	.	-3
Cc1nn(CC(=O)OCC(=O)Nc2c(C(C)C)cccc2C(C)C)c(C)c1[N+](=O)[O-]	2.2	0.7	0.8	0.0	-0.3	11%	8
Nc1ccn(-c2ccccc2)c(=O)c1	-1.4	0.73	2.4	-2.8	-3.5	15%	20
COc1cc(C(=O)Nc2nccs2)cc(OC)c1OC	3.3	0.68	0.7	-1.0	3.2	-4%	-3
CN(C)C(=O)c1ccc(NC(=O)CSc2nnc(-c3cccs3)n2N)cc1	0.6	0.67	0.1	3.1	3.4	.	13
c1ccc(CCc2cccnc2)cc1	1.8	0.62	.	3.7	.	-6%	-4
CC1CCC2(CC1)NC(=O)N(CC(=O)NCCc1c[nH]c3ccccc13)C2=O (stereo not drawn)	1.8	0.71	1.4	0.0	-0.9	.	3
COc1ccccc1/C=C1\Cc2ccccc2C1=O	-4.2	0.68	-4.9	2.1	-2.1	-9%	-6
Cc1ccn2c(c1)nc(=O)c1cc(S(=O)(=O)N3CCC(C)CC3)ccc12	-309	0.68	1.4	4.5	3.2	.	-6
COc1cc(S(=O)(=O)Nc2c(C)cc(C)cc2C)ccc1Cl	1.9	0.73	0.1	1.6	0.7	26%	1
CC(C)c1c(C(=O)N/N=C/c2ccccc2OCc2c(F)cccc2Cl)nnn1-c1nonc1N	.	.	-0.3	-1.4	-3.4	.	10
Cc1ccc(C2=N/C(=C\c3cccs3)C(=O)N2Nc2ccccc2)cc1	7.6	0.78	-0.6	-3.7	-1.9	-1%	-3
CN(C)Cc1nc2c([nH]1)c(=O)n(C)c(=O)n2C	3.2	0.67	0.9	4.1	3.0	-1%	8
Cc1ccc(C)c(NC(=S)N2CCN(c3cccc(C(F)(F)F)c3)CC2)c1	2.9	0.68	0.0	-1.4	-1.2	-1%	7
O=C(NCCCNc1ccc(C(F)(F)F)cc1[N+](=O)[O-])c1ccc(Cl)cc1	3.5	0.71	0.4	0.6	-3.5	-2%	-6
CN(Cc1ccccc1)C(=O)c1c[nH]c2ccc(S(=O)(=O)N3CCOCC3)cc2c1=O	-36	0.71	-0.9	4.3	-1.4	1%	-3
O=C(NC1CCCC1)c1ccc(Br)s1	0.2	0.7	1.5	-2.0	1.7	7%	3
COc1ccc(/C=C/C(=O)N(C)C2(C)CCS(=O)(=O)C2)cc1 (stereo not drawn)	5.6	0.69	0.6	0.4	0.5	3%	14
CSc1ccc(CN(C)C(C)C(=O)Nc2ccc(F)c(F)c2F)cc1 (stereo not drawn)	0.3	0.65	1.0	3.2	-3.5	-15%	-3
O=C(Cc1ccccc1F)NC1CCCc2ccccc21 (stereo not drawn)	3.8	0.7	-0.3	2.8	-3.2	.	5
CC(C)NC(=O)N(C)C[C@H]1Oc2ccc(NC(=O)Nc3ccc4c(c3)OCO4)cc2C(=O)N([C@H](C)CO)C[C@@H]1C	1.8	0.76	-0.1	-5.3	-4.4	.	-2
COc1ccccc1-c1noc(COC(=O)c2ccc(Br)o2)n1	4.5	0.69	-0.1	-4.2	0.4	7%	-7
Cc1ccc(/C=C/C(=O)NCCCc2ccccc2)cc1	-0.4	.	-1.5	-0.1	1.6	15%	2
Cn1c(C(=O)NCCN2CCN(Cc3ccccc3)CC2)cc2c(=O)n(C)c3ccccc3c21	-1.5	0.72	-0.2	5.0	2.0	-5%	7
CN(C)c1ccc(N=Cc2nc(-c3ccccc3)oc2OC(=O)c2cccc(Br)c2)cc1	3.7	.	-4.8	4.9	-2.9	.	18
O=C(Nc1ccc(Cl)cc1)N1CCCN(Cc2ccccc2F)C1	3.6	0.61	1.1	-1.3	-1.6	2%	13
COc1ccc2c(c1OC)C(=O)OC2Nc1ccccn1 (stereo not drawn)	-1.5	0.72	-0.4	-2.3	-0.5	14%	-10
Cn1c(=O)c2c(ncn2CC(=O)Nc2nnc(Cc3ccccc3)s2)n(C)c1=O	1.1	0.68	1.3	1.2	-3.3	4%	1
CCn1cc(C(=O)OCc2ccc(F)cc2)c(=O)c2ccc(C)nc21	4.7	0.67	0.0	-2.4	3.2	1%	12
O[C@@H]1CN(Cc2ccccc2Cl)CC[C@H]1N1CCOCC1	1.6	0.62	-0.3	-1.8	-9.0	1%	2
COc1ccccc1/C=C1\SC(=S)N(CCC(=O)NCCc2ccc(O)cc2)C1=O	4.6	0.69	-0.9	-1.2	4.6	.	8
Cc1cccc(NC(=S)N2CCN(S(=O)(=O)c3cccc(F)c3)CC2)c1	2.8	0.7	1.1	-3.5	2.8	7%	4
Cc1ccnc(NC(=O)CCCOc2cc(=O)n(C)c3ccccc23)c1	0.7	0.65	0.5	-1.3&1.6	2.1	-5%	-6
COc1ccc2c(c1)C(=NNC(=O)c1ccccn1)c1cc(OC)ccc1-2	6.2	0.75	0.4	-20	-5.8	.	43*
CC(C)(C)c1ccc(C(=O)Cn2cnnc2C#N)cc1	2.1	0.68	0.3	3.7	6.1	.	-6
CC(=O)c1cccc(NC(=O)NCc2ccc3c(c2)OCO3)c1	-2.9	0.69	0.8	-0.8	1.2	.	-3
CC(C)(C)Cc1nnc(NS(=O)(=O)c2ccccc2)s1	1.6	0.66	-0.5	-0.3	-2.5	-11%	7
Cn1ccsc1=NC(=O)c1ccc(S(C)(=O)=O)c([N+](=O)[O-])c1	11	0.69	-1.2	2.1	-1.4	-3%	1
Cc1ccc([N+](=O)[O-])c(OCc2ncc(Cl)n2C)c1	2.2	0.64	-0.6	1.8	-0.2	.	-17
C=CCNC(=O)c1ccccc1NC(=O)c1ccc(Cl)c(S(=O)(=O)Nc2ccccc2)c1	-1.1	0.73	0.8	3.1	2.9	31%	11
CC(C)(C)c1ccc(-c2noc(-c3ccc4c(c3)CCO4)n2)cc1	4.5	0.7	-0.5	1.9	-5.0	-2%	-8
C[C@]12CCC(=O)C=C1CC[C@@H]1[C@@H]2CC[C@@]2(C)[C@H]1CC[C@@]21CCC(=O)O1	1.5	0.68	0.3	3.4	-4.5	4%	4
Nc1nnc(SCC(=O)OCC(=O)Nc2ccccc2F)s1	0.7	0.67	0.2	6.5	-1.0	-4%	-3
Cc1cc(C)c(C(N)=O)c(Nc2ccc(F)cc2)n1	1.1	0.64	0.2	2.0	6.7	0%	-1
CCN1CCN(C(c2ccc(F)cc2)c2nnnn2Cc2cccs2)CC1 (stereo not drawn)	1.1	0.73	0.0	6.1	2.5	1%	1
CC1CCN(C(=O)CCc2ccc(S(=O)(=O)NC(C)C)cc2)CC1	1.5	0.68	0.1	3.6	8.7	2%	1
CCOC(=O)CNC(=O)COc1coc(CN2CCN(Cc3ccccc3)CC2)cc1=O	2.4	0.69	-1.6	-2.7	-1.4	.	-3
O=C(COC(=O)c1ccc[nH]c1=O)Nc1cc(S(=O)(=O)N2CCCCC2)ccc1Cl	-2.3	0.7	0.0	0.3	1.8	9%	7
Cc1nc(SCc2cccnc2)[nH]c(=O)c1C	1.9	0.69	-0.1	-8.1	3.2	-5%	-1
CCn1c(NCc2ccccc2NS(=O)(=O)c2ccc(C)cc2)nc2ccccc21	-0.9	0.72	-0.6	-0.4	-4.6	-5%	-4
COCCn1c(SCC(=O)N2CCc3ccccc3C2)nc2ccccc2c1=O	3.4	0.67	-1.6	0.8	-1.2	.	-3
O=C(CSc1nnc(SCc2ccc(Cl)cc2)s1)N/N=C/c1ccc(Cl)cc1Cl	.	.	-1.2	0.5	-3.3	?	-5

(list continues)
Molecule	UCH37 DUB inh	E coli growth	Bfl-1 A1 inh	HNF4A DNA FP	LANA-H2B inh	Vif A3G	B2AR ag
O=C(CSc1nnc(-c2ccc3c(c2)OCO3)o1)Nc1ncc(Cl)cc1Cl	.	.	-0.7	-2.0	0.0	.	-12
O=C(CSc1nc2[nH]c(=O)cc(O)c2s1)Nc1cc(Cl)cc(Cl)c1	4.4	0.67	0.2	1.6	-2.3	.	-4
O=C(CN1C(=O)NC(Cc2ccccc2)C1=O)Nc1ccc(F)c(F)c1F (stereo not drawn)	-0.2	0.64	0.3	1.8	-4.0	1%	-3
C/C(=C1\SC(N2CCOCC2)=NC1=O)c1ccc(C)cc1	7.9	0.69	-0.5	2.3	0.2	-1%	-7
N#CCc1nc2c3c4c(sc3ncn2n1)CCCC4	1.7	0.73	.	2.9	.	6%	-3
COc1ccc(-c2cc3ccccc3oc2=O)cc1	-271	0.64	-2.3	2.4	4.8	.	-5
O=C1c2ccccc2C(=O)N1CSc1nnc2c3ccccc3n(CCc3ccccc3)c2n1	2.1	0.8	0.0	3.5	4.0	?	-14
O=C(CNC(=O)c1ccc(Br)o1)NNC(=O)c1cccc(Cl)c1	1.9	0.57	0.0	2.6	.	-1%	0
CCc1cc2c(cc(C(=O)O)n2C)s1	0.3	0.71	-0.1	-2.4	-2.5	-2%	-1
Cc1cccc(/C=N\Nc2nnc(-c3ccccc3)c(=O)[nH]2)c1	.	.	-0.1	1.1	-7.6	2%	3
COc1cccc(-c2nc(CS(=O)(=O)CC(=O)NCCc3ccc(OC)cc3OC)c(C)o2)c1	1.1	0.64	0.5	-0.3	2.8	.	2
Cc1cccc(CCNC(=O)C2CCN(S(=O)(=O)c3c(C)nn(C)c3C)CC2)c1	1.1	0.75	0.2	-0.6	8.4	9%	-4
CCOC(=O)c1cccc(NC(=O)CN(c2ccc(C)cc2)S(=O)(=O)c2c(C)n[nH]c2C)c1	5.2	0.69	0.9	3.8	-3.2	28%	-5
